KCNQ2 enhance – KCNQ2 (rat) channel potentiation; O88943; CHO-K1 KCNQ2, FluxOR thallium flux fluorescence; hits give high values; B-score at 10 µM; 0.54% of 310,000 active;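 active = fluorescence ratio B-score at least 3 SD of library B-scores, with initial fluorescence B-score within 3 SD, cut at about 5.3 in these data; same plate scores as AID 2156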;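 also: B-score of peak minus minimum over baseline fluorescence ratio after K+ and Tl+ stimulus; positive B-score means potentiation of KCNQ2 with more thallium influx and brighter signal; only the inactives scoring about 0 or higher are listed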
Target sequence (O88943 whole entry, looked up): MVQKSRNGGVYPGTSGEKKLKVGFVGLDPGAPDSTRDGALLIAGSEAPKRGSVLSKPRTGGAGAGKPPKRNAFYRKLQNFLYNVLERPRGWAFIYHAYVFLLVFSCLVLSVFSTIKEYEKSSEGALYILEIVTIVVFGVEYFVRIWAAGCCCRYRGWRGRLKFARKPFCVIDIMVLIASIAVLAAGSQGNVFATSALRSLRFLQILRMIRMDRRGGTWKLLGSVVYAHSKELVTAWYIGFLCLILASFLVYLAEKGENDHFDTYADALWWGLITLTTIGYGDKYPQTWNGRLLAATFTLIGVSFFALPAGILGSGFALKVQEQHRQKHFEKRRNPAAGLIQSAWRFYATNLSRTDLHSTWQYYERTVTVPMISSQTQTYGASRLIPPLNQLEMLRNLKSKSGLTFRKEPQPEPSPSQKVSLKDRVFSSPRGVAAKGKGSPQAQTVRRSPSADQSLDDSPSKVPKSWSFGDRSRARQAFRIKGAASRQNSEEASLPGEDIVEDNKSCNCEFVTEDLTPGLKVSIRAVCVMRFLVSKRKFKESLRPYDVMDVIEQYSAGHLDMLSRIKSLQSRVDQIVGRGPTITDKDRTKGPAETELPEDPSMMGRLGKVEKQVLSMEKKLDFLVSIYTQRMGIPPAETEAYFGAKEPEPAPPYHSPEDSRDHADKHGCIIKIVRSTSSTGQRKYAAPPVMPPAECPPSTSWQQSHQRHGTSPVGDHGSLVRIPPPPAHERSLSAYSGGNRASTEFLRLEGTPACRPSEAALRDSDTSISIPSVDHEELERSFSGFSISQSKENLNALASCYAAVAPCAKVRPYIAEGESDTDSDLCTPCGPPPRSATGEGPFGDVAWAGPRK
KCNQ2 enhance baseline – second read-out of KCNQ2 enhance, no call of its own (marks repeat the call); B-score; compound at 10 µM; measured here: initial fluorescence intensity artifact check;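 brightness before thallium and not channel activity; 0 = typical well and far values either way flag optical interference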
* = called active by the depositor; . = not tested or not shown. Not all compounds are listed; count on the stated rates, not on these rows.

Molecule | KCNQ2 enhance | KCNQ2 enhance baseline
CCOc1ccccc1N1C(=O)CC(N(O)c2ccccc2)C1=O (configuration not stated) | 0.83 | -0.15
COc1ccc2c(c1)[nH]c1c(=O)n(/N=C/c3ccc(OC)c(CN4CCCCC4)c3)cnc12 | 2.72 | -0.34
CC(=O)c1sc(-c2ccccc2)cc1NS(=O)(=O)c1ccccc1 | 0.32 | 0.56
CCc1ccc(CNC(=O)CCC(=O)n2ncc3cc(C)ccc32)cc1 | 0.55 | 1.35
Nc1c2c(=O)oc(-c3ccccc3)cc2nn1-c1ccccc1 | 0.42 | 0.05
CCCCCC1CCC(C(=O)NCCN2CCOCC2)CC1 (configuration not stated) | 1.64 | -0.43
Cc1nn(-c2ccccc2)c(C)c1-c1cc(C(=O)N/N=C/c2cccnc2)[nH]n1 | 1.23 | 1.05
Cc1cc(OCc2cc(C(=O)N(C)CCCN3CCOCC3)no2)cc(C)c1Cl | 0.57 | 0.76
O=c1ncn(-c2cccc([N+](=O)[O-])c2)c2ccccc12 | 0.3 | 2.47
Cc1ccc(Nc2nnns2)cc1 | 1.96 | -0.61
O=C(O)c1ccc(N/N=C/c2ccc(OC(=O)c3cccc(Cl)c3)cc2)cc1 | 0.02 | 1.15
Cc1ccc(NC(=O)c2ccc(Cl)c(S(=O)(=O)N3CCCC3)c2)nc1 | 0.52 | -0.12
CC(C)c1ccc(NC(=O)CN2CCN(c3ccccn3)CC2)cc1 | 0.46 | -0.42
CCOCC(=O)N(CC)Cc1ccccc1 | 0.04 | -0.06
CC(=O)N/C(=C/c1ccc2c(c1)OCO2)C(=O)NCC(=O)O | 0.77 | 0.26
COc1ccc(NS(=O)(=O)N2CCOCC2)cc1 | 1.02 | -1.42
CCN1/C(=C\C(=S)Nc2ccccc2)Sc2ccccc21 | 0.62 | -0.94
CCC(C)C(NC(=O)c1ccc(Cl)cc1)C(=O)Nc1cccnc1 (configuration not stated) | 5.25 | -0.13
Cc1ccc(C2C=NN(c3ccccc3)C2=O)cc1 (configuration not stated) | 0.05 | 1.36
O=C(NC1CCCc2ccccc21)c1n[nH]c(=O)c2ccccc12 (configuration not stated) | 1.67 | 0.06
O=C(Nc1ccccc1)N1CCC(c2nc(-c3ccc(S(=O)(=O)N4CCOCC4)cc3)no2)CC1 | 1.39 | 0.27
CC(/C=C/c1ccc(O)cc1)=N/O | 0.22 | 1.94
Cc1ccc(CNC2=NCCCCC2)n1C | 0.04 | -1.19
Nc1nonc1-n1nncc1-c1ccccc1 | 0.99 | -0.08
Cc1cc(C)c(S(=O)(=O)N2CCCC2=O)c(C)c1N(C)S(C)(=O)=O | 0.33 | 1.85
CCc1cc2c(NCCN3CCCCC3)ncnc2s1 | 0.09 | -0.83
Cc1ccc(-c2nnc3c4ccccc4c(C)nn23)cc1NC(=O)CN1CCOCC1 | 1.02 | -1.65
CC(C)c1ccc(N(C(=O)c2csnn2)C(C(=O)NC2CCCC2)c2cccnc2)cc1 (configuration not stated) | 1.29 | -2
O=C(OCC(=O)N1CCN(c2ccccc2)CC1)c1cnc(Cl)c(Cl)c1 | 2.32 | -2.12
CSc1ccccc1C(=O)Nc1c(C)cccc1C | 0.11 | -1.06

Reprinted from the part before: 3 compounds; new compounds follow.
Molecule | KCNQ2 enhance | KCNQ2 enhance baseline
CC(C)c1ccc(N(C(=O)c2csnn2)C(C(=O)NC2CCCC2)c2cccnc2)cc1 (configuration not stated) | 1.29 | -2
O=C(OCC(=O)N1CCN(c2ccccc2)CC1)c1cnc(Cl)c(Cl)c1 | 2.32 | -2.12
CSc1ccccc1C(=O)Nc1c(C)cccc1C | 0.11 | -1.06
Oc1ccccc1C1NN=C(c2ccccc2)S1 (configuration not stated) | 1.93 | -0.01
COc1cccc(-n2c(SCC(N)=O)nnc2-c2ccncc2)c1 | 1.11 | -1.21
CC(=O)Nc1ccc(Nc2nc(C)c([N+](=O)[O-])c(N(C)c3ccccc3)n2)cc1 | 2.01 | 0.27
O=c1[nH]c2c(c(=O)[nH]1)CCC2 | 0.3 | -1.98
Nc1c(-c2ccccc2)cnn1-c1ccccc1 | 0.56 | 1.55
Cc1ccccc1CSCC(=O)NC1CCCC1 | 0.22 | 0.09
CCC(C)(C)c1ccc(OCCN2C(=O)NC(C)(C)C2=O)cc1 | 1.73 | -1.51
COc1cc(NC(=O)c2ccc(C)cc2C)ccc1NC(=O)c1cc2ccccc2o1 | 0.56 | 0.14
O=C(CCN1CCc2ccccc2C1)Nc1ccc(F)cc1 | 0.72 | -2.03
COc1ccccc1NS(=O)(=O)c1ccc2c(c1)CCN2C(=O)CCC(=O)O | 1.6 | -1.29
Cc1ccc(NC(=S)N2CCC(C(N)=O)(N3CCCCC3)CC2)c(C)c1 | 0.46 | -0.08
COc1ccc(OC)c2sc(N(CCCN(C)C)C(=O)CCS(=O)(=O)c3ccccc3)nc12 | 9.92* | -9.49*
CC(C)c1ccc(NC(=O)CCNS(=O)(=O)c2ccc3[nH]c(=O)oc3c2)cc1 | 1.73 | 0.38
CCOc1ccc(N2C(=O)CSC2c2ccncc2)cc1 (configuration not stated) | 1.67 | -0.39
CC(OC(=O)/C=C/c1ccccc1)C(=O)N1CCc2ccccc21 (configuration not stated) | 1.56 | 0.2
COc1cccc(CNC(=O)CCC2CCCN(C(=O)c3cccnc3SC)C2)c1 (configuration not stated) | 0.39 | 1.32
COc1ccc(/C=C/c2nc(-c3ccccc3O)n[nH]2)cc1OC | 10.2* | -0.96*
Cc1cc2cc(CNC(=O)c3ccc(C)c([N+](=O)[O-])c3)ccc2[nH]1 | 0.94 | -0.33
NC(=O)NOCc1cccc(Cl)c1 | 0.96 | 1.29
O=C(CCNS(=O)(=O)c1ccccc1)OCC(=O)c1ccc(Cl)cc1 | 0.44 | 0.15
Clc1ccc(CON/C=N/c2ncnc3sccc23)cc1 | 0.08 | -0.33
CCNC(=S)N/N=C/c1cccc(/C=N/NC(=S)NCC)c1 | 1.07 | -1.61
COc1ccc2nc(/N=C(\N)NC(=O)Nc3ccccc3)nc(C)c2c1 | 0.07 | -0.95
CCOc1ccc(NC(=S)NC(=O)c2c(Cl)cnn2CC)c([N+](=O)[O-])c1 | 0.01 | 0.02
Cc1ccc(CC(=O)CCc2ccccc2)cc1 | 0.17 | 0.56
Cc1ccc(Cn2c(SC(C)C(N)=O)nc3ccccc3c2=O)cc1 (configuration not stated) | 1.14 | -1.11
COCCCNC(=O)CC(NS(=O)(=O)c1ccc(Cl)cc1)c1ccco1 (configuration not stated) | 2.18 | -0.24
COc1ccc(CN2CCNC(=O)C2CC(=O)N2CCCN(C(C)=O)CC2)cc1OC (configuration not stated) | 0.01 | 1.41
CC(=O)OCc1cc2cc(C)ccc2[nH]c1=O | 0.59 | 0.02
Cn1c(=N)n(CC(O)c2cccc3ccccc23)c2ccccc21 (configuration not stated) | 0.78 | 0.47

Additional records follow.
Fields: KCNQ2 enhance, KCNQ2 enhance baseline
CCC(C)(O)c1[nH]c2ccc(C#N)cc2c1C (configuration not stated)
 : 1.98, -0.07
CN1C(C(=O)Nc2ccccn2)=C(O)c2ccccc2S1(=O)=O
 : 0.33, .
O=C(NC(=S)Nn1cnnc1)c1ccccc1Cl
 : 0.96, -1.35
O=C(NCc1cccnc1)c1ccc(COc2ccccc2Cl)cc1
 : 1.74, 0.3
CCCn1nc(C(=O)NNC(=O)c2cccc(S(=O)(=O)NC(C)C)c2)c2ccccc2c1=O
 : 0.09, 2.02
O=C1CCCC2=C1C(c1cccs1)n1nc(SCc3ccccc3F)nc1N2 (configuration not stated)
 : 0.58, 1.69
C=CCSc1nc2c(c(=O)n(C)c(=O)n2C)n1CC
 : 1.46, -0.41
N#Cc1ccc(N2Cc3ccccc3C2=NC(=O)c2cccnc2Cl)cc1
 : 0.79, -0.31
CCCc1nc2n[nH]c(N)c2c2c1CCC2
 : 1.14, 1.77
Cc1ccc(OCCNC(=O)C2CC(=O)N(c3ccc(C)cc3)C2)cc1 (configuration not stated)
 : 0.08, -0.43
COc1ccc(C(C(=O)NC(C)(C)C)N(C(=O)CNC(=O)c2cccs2)c2cccnc2)cc1OC (configuration not stated)
 : 0.45, 0.94
Cc1[nH]n(C)c(=O)c1N=Nc1ccc(S(C)(=O)=O)cc1
 : 0.37, -1.64
COc1ccc(CNc2nc(NCc3ccc(OC)cc3)n(S(C)(=O)=O)n2)cc1
 : 0.84, 0.71
CC1CCc2c(nc3ncnn3c2N2CC(C)OC(C)C2)C1 (configuration not stated)
 : 0.01, -0.27
Cn1c(CCNC(=O)c2ccco2)nc2cc(NC(=O)C3CCCCC3)ccc21
 : 1.85, 0.36

(list continues)
Fields: KCNQ2 enhance, KCNQ2 enhance baseline
C=CCn1c(=O)c2ccccc2n2c(SCC(=O)/C(C#N)=C(\C)N)nnc12
 : 0.34, 0.68
Cc1ccc(N=Nc2c(N)nn(-c3ccccc3)c2N)cc1
 : 0.84, -1.29
CCCc1nnc(NC(=O)c2cc3ccccc3oc2=O)s1
 : 0.22, -2
Cc1ccc(S(=O)(=O)NC(=O)N(C)C2CCCCC2)cc1
 : 0.77, 0.55
Cc1ccc(CSc2nnc(NC(=O)C3COc4ccccc4O3)s2)cc1 (configuration not stated)
 : 0.11, -1.1
OCC1(Cc2ccccc2Cl)CCN(C/C=C/c2ccccc2)CC1
 : 1.23, -0.49
Nc1ccc(Cl)cc1C(=O)OCC(=O)NC1CCS(=O)(=O)C1 (configuration not stated)
 : 0.05, -0.54
CC1Oc2ccccc2N(CC(=O)N2CCCC2)C1=O (configuration not stated)
 : 2.53, -1.57
CCOc1ccccc1CNc1ccc(N2CCOCC2)c(C(=O)O)c1
 : 0.01, 0.08
COc1ccc2[nH]c(=O)c(CN(C)C(=O)c3cccs3)cc2c1
 : 0.2, -0.64
CCSc1nnc(Nc2ccccc2)s1
 : 1.86, 0.7
CCOC(=O)C1=C(C)NC2=C(C(=O)CCC2)C1c1ccc(O)c(OCC)c1 (configuration not stated)
 : 0.01, -0.14
COc1ccc(/C=C2\SC(=N)N(c3ccc(F)cc3)C2=O)cc1OC
 : 1.02, 1.44
COc1ccc(CNc2cc(C)cc(C)c2)cc1OC
 : 0.37, -0.64
Cc1ccc(-c2cnc(NCc3cc4c(cc3[N+](=O)[O-])OCO4)n2C)cc1C
 : 0.41, -1.27

Quoted from the listing:
Value for `Nc1ccc(Cl)cc1C(=O)OCC(=O)NC1CCS(=O)(=O)C1` (configuration not stated) in KCNQ2 enhance: 0.05
Value for `CCOc1ccccc1CNc1ccc(N2CCOCC2)c(C(=O)O)c1` in KCNQ2 enhance: 0.01
Value for `Cc1ccc(-c2cnc(NCc3cc4c(cc3[N+](=O)[O-])OCO4)n2C)cc1C` in KCNQ2 enhance: 0.41
Value for `O=c1ncn(-c2cccc([N+](=O)[O-])c2)c2ccccc12` in KCNQ2 enhance baseline: 2.47

New compounds follow.
Fields: KCNQ2 enhance, KCNQ2 enhance baseline
O=C(O)CCCC(=O)N1CCCC1
 : 0.85, 0.56
O=S(=O)(c1ccc(S(=O)(=O)N2CCC3(CC2)OCCO3)cc1)N1CCCC1
 : 1.93, -0.22
CN(C)c1ccc(/C=N/NC(=O)c2cccc(C(=O)N/N=C/c3ccc(N(C)C)cc3)n2)cc1
 : 0.34, -0.59
Cc1ccc(NC(=O)C(=O)NCC2CCCO2)cc1C (configuration not stated)
 : 0.89, -1.98
C=CCn1c(SCCN2CCCC2)nc2c([nH]c3ccccc32)c1=O
 : 1.04, 0.74
Oc1ccccc1C1=Nc2ccccc2N=C(c2ccco2)C1
 : 0.29, 1.12
Cc1ccc2c(CC(=O)OCc3cc(=O)n4c(n3)sc3ccccc34)coc2c1
 : 0.15, 1.29
O=C(N/N=C/c1cc(Cl)cc([N+](=O)[O-])c1O)NC12CC3CC(CC(C3)C1)C2
 : 0.84, 0.01
O=c1cc(CN2CCN(Cc3ccccc3)CC2)c2ccc(O)cc2o1
 : 0.27, 0.27
Cc1cc(NS(=O)(=O)c2ccc(NC(=S)NC(=O)c3ccc(Br)cc3)cc2)no1
 : 0.09, 0
O=C(NC1=NCCS1)C1Cc2ccccc2CN1C(=O)c1ccccc1 (configuration not stated)
 : 0.02, 0.55
Cc1ccc(N(CC(=O)NC2CCCC2)C(=O)CCC(=O)Nc2ccccn2)cc1C
 : 0.35, -0.96
Cc1ccc(NC(=S)NCc2ccc3c(c2)cc(C)n3C)c(C)c1
 : 0.22, 1.07
O=C(NCCO)N1c2ccccc2Sc2ccccc21
 : 0.51, -1.21
Cc1cc2c(cc1C)C(=O)NC(C)(C)C2
 : 0.8, 1.53

Ordered by heavy-atom count (high to low): three of the compounds above.
Fields: KCNQ2 enhance, KCNQ2 enhance baseline
Cc1ccc(N(CC(=O)NC2CCCC2)C(=O)CCC(=O)Nc2ccccn2)cc1C
 : 0.35, -0.96
O=C(N/N=C/c1cc(Cl)cc([N+](=O)[O-])c1O)NC12CC3CC(CC(C3)C1)C2
 : 0.84, 0.01
Cc1ccc(NC(=O)C(=O)NCC2CCCO2)cc1C (configuration not stated)
 : 0.89, -1.98

The listing continues:
Fields: KCNQ2 enhance, KCNQ2 enhance baseline
O=C(Nc1ccc2[nH]c(=S)sc2c1)c1ccccc1
 : 15.5*, 0.09*
COc1cc(NC(=O)Nc2ccccc2OC)c(OC)cc1NC(=O)CN1CCCCC1
 : 1.59, -0.53
CCCC(=O)Nc1c(C)n[nH]c1C
 : 0.56, 2.17
Cn1cnnc1Sc1ccc(C(=O)OCC(=O)NC2CC2)cc1[N+](=O)[O-]
 : 1.21, -0.58
CCc1ccccc1NC(=O)CN(C)C(=O)Cn1ncc(Cl)c(Cl)c1=O
 : 0.68, 0.04
Cc1c(NC(=O)c2cc(-n3cnnc3)ccc2Cl)cccc1-c1nc2ccccc2o1
 : 0.39, 0.89
N#Cc1c(NC(=O)CSc2ncn(-c3ccccc3)n2)sc2c1CCCC2
 : 1.16, -0.05
CC(C)c1ccc(NC(=O)COc2ccccc2)cc1
 : 1.12, -1.02
COc1ccccc1NC(=O)CNC(=O)c1ccc(Br)o1
 : 2.22, -0.72
Cc1nnc(SCC(=O)NCc2ccc3c(c2)OCO3)[nH]c1=O
 : 0.23, -0.18
Cc1cc(C)nc(N/N=C/C(Cl)=C/c2ccccc2)n1
 : 0.55, -0.81

Bioassay records deposited in PubChem by Johns Hopkins Ion Channel Center.
